# Screens deposited in PubChem by Broad Institute.
# AF4-AF9 inh: blocks AF4 peptide binding to human AF9; AlphaScreen, biotin-AF4 peptide binding to FLAG-AF9; 350,000 tested, 0.47% active; AID 651704; inhibition, % at 10 µM;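 active = every replicate reaching a set inhibition limit, whatever the replicate mean, cut at about 25% in these data; inconclusive = mean inhibition reaches that limit but some replicates miss it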;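 also: 0% = plate neutral control median and 100% = total signal loss; the record names both 10 and 1 µM as test concentration; the first replicate is given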
# Target sequence (P42568 whole entry, looked up): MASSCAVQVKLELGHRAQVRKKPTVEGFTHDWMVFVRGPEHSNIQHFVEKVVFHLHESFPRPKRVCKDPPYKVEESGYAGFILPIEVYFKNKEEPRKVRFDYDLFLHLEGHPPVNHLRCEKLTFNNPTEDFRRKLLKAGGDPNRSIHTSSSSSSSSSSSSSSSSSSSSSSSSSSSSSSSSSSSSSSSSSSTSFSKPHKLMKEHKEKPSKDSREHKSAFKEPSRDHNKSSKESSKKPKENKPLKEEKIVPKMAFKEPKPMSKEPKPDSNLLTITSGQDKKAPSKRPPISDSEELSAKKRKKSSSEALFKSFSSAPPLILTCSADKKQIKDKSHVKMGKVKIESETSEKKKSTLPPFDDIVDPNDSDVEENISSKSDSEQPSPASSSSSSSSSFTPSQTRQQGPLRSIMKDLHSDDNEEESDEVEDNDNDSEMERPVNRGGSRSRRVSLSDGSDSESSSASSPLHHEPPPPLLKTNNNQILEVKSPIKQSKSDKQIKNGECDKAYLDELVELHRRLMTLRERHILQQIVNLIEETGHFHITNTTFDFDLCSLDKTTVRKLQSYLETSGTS
# Calb FLC: C. albicans growth modulation with fluconazole | 300,000 tested, 0.57% active | C. albicans CaCi-2 (fluconazole-resistant clinical isolate) + fluconazole, Alamar Blue growth, 48 h | growth inhibition, % (test concentration not listed);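 active = most replicates above 75%; inconclusive = exactly half above 75%; inactive = most below 75%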;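 also: all wells also contain fluconazole at 8 µg/ml as a sub-toxic cotreatment; 0% = median of DMSO wells and 100% = median of geldanamycin control wells; wells of about 8 µL received 7.5 nL stock; the first replicate is given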
# Beta apoptosis: blocks beta cell apoptosis. protection from apoptosis, % (no concentration beside the values). AID 435005. 300,000 tested, 0.8% active. INS-1E cytokine-induced death, ATP luminescence, 48 h; percent of positive-control rescue, neutral wells zero;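 active = all replicates at 75% or more, or half of them and the mean; inconclusive = half reach 75% but not the mean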;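 also: 0% = cytokine-treated negative control wells and 100% = positive control rescue; higher means more ATP so stronger rescue from cytokine killing; wells of about 40 µL received 100 nL stock; the first replicate is given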
# Ecoli rRNA inh: inhibits bacterial ribosomal RNA function over humanized ribosomes; E. coli WT GFP vs humanized-ribosome RFP mutants, fluorescence, 24 h; stronger effect = lower value; DMSO median 0, no signal -100; 350,000 tested, 1.6% active; GFP signal change (wild-type ribosome), % (no concentration beside the values);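 active = significant combined selectivity score with lowered wild-type GFP, culture density cut under 30%, mutant RFP and density less affected; inactive = any of these conditions unmet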; also: one replicate is shown; some compounds called inactive have numbers as strong as hits
# ALR inh: human ALR oxidase inhibition via reduced H2O2; P55789; inhibition, % (concentration not given with the values); AID 485317; purified ALR, DTT oxidation, H2O2 HRP-luminol luminescence; 290,000 tested, 3.8% active;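 active = mean and each replicate at 75% or more; inconclusive = only one of the two met; inactive = neither met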;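 also: stock transfer was 7.5 nL into about 7.5 µL; 0% = neutral wells and 100% = wells with inactivated enzyme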
# Target sequence (P55789 whole entry, looked up): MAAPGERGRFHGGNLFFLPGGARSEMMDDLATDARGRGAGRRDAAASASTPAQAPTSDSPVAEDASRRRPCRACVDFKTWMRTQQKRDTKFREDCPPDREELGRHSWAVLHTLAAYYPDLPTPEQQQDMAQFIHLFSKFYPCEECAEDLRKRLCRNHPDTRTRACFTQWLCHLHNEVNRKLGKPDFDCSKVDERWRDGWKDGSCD
# FGF22 binding: shifts melting point of recombinant human FGF22; Q9HCT0; recombinant FGF22 thermal shift, SYPRO orange fluorescence; percent of sucrose octasulfate shift, DMSO zero; calls only at 9.99 µM; 340,000 tested, 1.5% active; AID 651658;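 active = melting point raised past a set limit in the mean and every replicate; inconclusive = no clear call; three in four hits are not shown here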
# Target sequence (Q9HCT0 whole entry, looked up): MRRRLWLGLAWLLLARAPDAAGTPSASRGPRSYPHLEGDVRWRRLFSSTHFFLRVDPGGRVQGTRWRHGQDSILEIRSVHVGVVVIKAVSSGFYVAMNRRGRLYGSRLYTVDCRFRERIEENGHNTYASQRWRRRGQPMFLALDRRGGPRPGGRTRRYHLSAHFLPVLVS
# T cruzi inh: T. cruzi replication inhibition; 300,000 tested, 1.4% active; T. cruzi beta-gal in NIH3T3, luminescence, 90 h; inhibition, % (concentration not given with the values);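 active = mean inhibition across valid replicates above about 55%, limit read from the data; inconclusive = mean below that limit but half or more replicates reach it; inactive = mean below it, under half of replicates reach it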;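 also: signal also drops with host cell toxicity which is not excluded here; 0% = plate median of DMSO wells and 100% = zero luminescence signal; higher percent means less beta-gal luminescence so fewer parasites; stock transfer was 50 nL into about 50 µL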
# RanGTP-Impb inh: inhibitors of RanGTP-importin-beta interaction, primary screen, biochemical, FRET, CFP-Ran, YFP-importin-beta, homogeneous. 300,000 tested, 1.1% active. inhibition, % (test concentration not listed). cell-free CFP-Ran/YFP-importin-beta FRET ratio;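 active = most replicates above 15%; inconclusive = exactly half above 15%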;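 also: 0% = DMSO wells and 100% = Ran loaded with GDP instead of GTP; wells of about 40 µL received 100 nL stock; the first replicate is given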
# Ecoli rRNA inh OD600: further read-out of Ecoli rRNA inh, marked with its call; OD600 change, %; measured here: OD600 growth;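 optical density of the mix in the first replicate; 0 = DMSO median and -100 = no signal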
# Ecoli rRNA inh RFP: further read-out of Ecoli rRNA inh, marked with its call; RFP signal change, %; measured here: RFP humanized mutant strains;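 first replicate; 0 = DMSO median and -100 = no signal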
# * marks the source's active call; other numbers are inactive results; i = inactive; ? = inconclusive; nt = not tested or not shown.
SMILES,AF4-AF9 inh,Calb FLC,Beta apoptosis,Ecoli rRNA inh,Ecoli rRNA inh OD600,Ecoli rRNA inh RFP,ALR inh,FGF22 binding,T cruzi inh,RanGTP-Impb inh
CCS(=O)(=O)N1CCC(C(=O)Nc2ccccc2OC)CC1,0.5,6.7,-0.9,7.3,12.4,-1.5,-3.4,i,-12.3,4.3
O=C(NCCc1nnc2ccc(SCC(=O)N3CCOCC3)nn12)c1ccccc1,1.7,5.3,3.3,16.5,15.4,1.9,2.2,i,-13.5,2.2
CN(CC(=O)OCC(=O)Nc1ccccc1)S(=O)(=O)c1ccc(Cl)cc1,nt,4.4,-4.7,nt,nt,nt,-17.4,nt,-12.6,0.7
O=C(NC(=S)N1CCN(c2ccccn2)CC1)c1ccco1,-0.1,-21.3,3.6,8.6,2.6,-2.2,3.7,i,-4.1,-2.4
N=C1C(=O)OCC1c1ccccc1NC(=O)CN1CCCCC1 (centres undefined),nt,2.3,5.8,nt,nt,nt,-14.0,nt,-17.2,?
COc1ncccc1C(=O)NC1CCCc2c1cnn2-c1cc(C)cc(C)c1 (centres undefined),3.0,7.6,-7.1,-16.6,-55.1,-3.0,2.7,i,18.3,1.3
O=C(Oc1ccc([N+](=O)[O-])cc1)c1cncc(Br)c1,-0.5,4.2,2.4,10.6,7.8,-0.6,49.2,i,-10.2,-2.5
CC(=O)Nc1ccc(NC(=O)CS(=O)(=O)c2cn(CC(=O)N3CCCC3)c3ccccc23)cc1,-1.0,-9.8,nt,nt,nt,nt,-62.0,i,-10.4,-4.1
CCOc1ccccc1CN1CCN(C/C=C/c2ccc(OC)cc2)CC1CCO (centres undefined),9.1,-12.9,-0.3,11.8,2.1,9.4,-31.0,i,14.4,4.1
O=C(CN1c2cccc3cccc(c23)S1(=O)=O)Nc1ccccc1Br,3.3,nt,-0.6,-1.9,-5.9,-3.0,-2.8,i,nt,nt
CCN(CC)C(=O)CSc1nnc(-c2cccnc2)n1Cc1ccccc1,nt,6.7,2.6,nt,nt,nt,-7.6,nt,0.7,-1.4
Clc1ccc(CSc2ccc(-c3ccco3)nn2)cc1,-0.6,6.6,1.2,6.3,15.5,1.9,41.3,nt,3.9,1.3
Cc1c(C(=O)NCc2ccccc2)oc2c1C(=O)CCC2,nt,4.0,-1.0,nt,nt,nt,-11.7,nt,17.7,-0.5
CCN1C(=O)N[C@@H](c2ccco2)C(C(C)=O)=C1C,1.3,-6.6,-2.3,1.7,14.6,3.3,-4.5,i,-18.5,-2.0
O=C1CCC(CCC(=O)N2CCCC(C(=O)c3ccc4c5c(cccc35)CC4)C2)=NN1 (centres undefined),1.8,-5.2,0.3,-1.1,-12.1,-0.5,-17.3,i,-1.8,5.8
O=C(COC(=O)c1ccccc1F)NC1CCCC1,-4.1,-4.0,-0.7,11.1,16.1,4.7,-23.1,i,-6.0,2.0
CCn1c(=O)cc(SCC(=O)Nc2ccc(Cl)cc2)c2ccccc21,nt,-10.4,nt,nt,nt,nt,-7.1,nt,14.6,63.5*
O=C(Nc1cc(S(=O)(=O)N2CCOCC2)ccc1N1CCCCC1)c1ccc(Cl)cc1,-0.2,nt,9.0,5.0,-1.1,-7.7,nt,i,nt,nt
C#CCOCCOCCOCCNc1nc(N2CCN(C(=O)[C@H](CCCN=C(N)N)n3cc(C(N)[C@@H](C)CC)nn3)CC2)nc(N2CCN(C(=O)[C@H](CC(N)=O)n3cc([C@@H](N)CC(N)=O)nn3)CC2)n1 (some centres undefined),25.2*,nt,-14.3,20.9,18.4,-5.3,-0.5,i,nt,nt
CCn1c(COc2ccc3c(c2)OCO3)nnc1SCC(=O)c1ccc(Cl)cc1,nt,1.8,4.9,nt,nt,nt,4.3,nt,29.1,1.2
O=C(NCc1cccs1)Nc1cccc(Cl)c1,nt,-9.7,3.7,nt,nt,nt,-2.5,nt,-0.8,4.8
CN(C)CC(C)(C)CNC(=S)NCc1ccc2c(c1)OCO2,nt,-12.4,nt,nt,nt,nt,-9.0,nt,-7.3,-1.5
CC1(C)OC(=O)C(=CNC(Cc2c[nH]c3ccccc23)C(=O)O)C(=O)O1 (centres undefined),nt,-6.0,1.3,nt,nt,nt,-10.6,nt,-21.4,0.2
COc1cc(C2C3=C(CC(C)(C)CC3=O)Nc3ccccc3N2C(C)=O)cc(OC)c1OC (centres undefined),-3.4,11.3,0.6,17.4,10.9,1.8,1.3,i,-1.1,1.1
O=C(c1cccc(S(=O)(=O)N2CCOCC2)c1)N1CCN(S(=O)(=O)c2cccs2)CC1,0.6,-27.9,nt,-1.0,5.7,-0.7,3.2,i,-7.0,-1.2

# Printed as active in AF4-AF9 inh (from the list above):
molecule	AF4-AF9 inh	Ecoli rRNA inh	Ecoli rRNA inh OD600	Ecoli rRNA inh RFP	ALR inh	FGF22 binding	RanGTP-Impb inh
C#CCOCCOCCOCCNc1nc(N2CCN(C(=O)[C@H](CCCN=C(N)N)n3cc(C(N)[C@@H](C)CC)nn3)CC2)nc(N2CCN(C(=O)[C@H](CC(N)=O)n3cc([C@@H](N)CC(N)=O)nn3)CC2)n1 (some centres undefined)	25.2*	20.9	18.4	-5.3	-0.5	i	nt

# Going on with the list.
SMILES,AF4-AF9 inh,Calb FLC,Beta apoptosis,Ecoli rRNA inh,Ecoli rRNA inh OD600,Ecoli rRNA inh RFP,ALR inh,FGF22 binding,T cruzi inh,RanGTP-Impb inh
COCCN=C1Sc2nc3cc(C)c(C)cc3cc2CN1Cc1cccs1,6.8,10.0,-4.3,-1.6,-1.7,-0.9,-8.8,i,45.3,-1.7
Cc1ccc(S(=O)(=O)NC(=O)Nc2ccc(N(C)C)cc2)cc1,34.6*,87.2*,5.7,5.3,15.7,34.6,85.7*,i,57.0*,0.2
COc1ccc(C(=O)Nn2c(SCc3cccc([N+](=O)[O-])c3)nc3ccccc3c2=O)cc1,nt,-31.8,3.2,nt,nt,nt,-3.3,nt,46.5,1.6
COc1ccc(Cl)cc1N(CC(=O)N1CCC(C)CC1)S(C)(=O)=O,nt,-4.1,1.0,nt,nt,nt,nt,nt,-0.3,4.3
CCN(CC)CCn1c(NCc2ccco2)nc2ccccc21,9.0,-18.1,-2.4,3.2,-3.5,-7.4,27.6,i,25.2,0.5
CCOC(=O)CN(c1ccccc1)S(=O)(=O)c1ccc(F)cc1,-2.9,-15.4,-1.5,5.4,4.7,0.8,-2.7,i,-11.9,3.1
O=C1NC[C@H](c2ccccc2)N(CCC23CC4CC(CC(C4)C2)C3)C1=O,2.5,-7.1,-1.0,nt,nt,nt,0.7,i,17.2,2.0
S=C(NCc1cccnc1)Nc1ccc(Oc2ccccc2)cc1,5.9,-22.9,2.3,-10.7,-15.5,2.2,12.1,i,5.5,-0.3
Cc1ccc(Nc2nnns2)cc1C,nt,2.7,-13.3,nt,nt,nt,87.2*,nt,-1.8,1.5
Cc1onc(-c2c(Cl)cccc2Cl)c1C(=O)NC1CCCCC1,-4.4,28.8,-1.5,-40.5,-49.9,2.4,-11.0,i,6.2,3.2
COc1cc(NS(=O)(=O)c2ccc(NC(=O)NC3CCCCC3)cc2)nc(OC)n1,nt,-12.8,0.7,nt,nt,nt,97.8*,nt,-16.3,-1.1
O=C(O)C1CCCN1C1=NS(=O)(=O)c2ccccc21 (centres undefined),1.9,3.2,0.1,6.1,5.4,-3.7,nt,i,-12.3,0.3
COc1ccc(CNS(=O)(=O)NCc2ccccc2)cc1OC,-3.1,-18.4,0.3,9.0,12.0,10.7,-17.0,i,-11.2,4.5
CCOC(=O)CNNC(=O)Nc1ccc(Cl)c(Cl)c1,nt,0.1,nt,nt,nt,nt,24.7,nt,-2.0,-0.1
CCOc1ccc(/C(O)=C2/C(=O)C(=O)N(CCCN3CCOCC3)C2c2ccc(C)cc2)cc1C (centres undefined),1.0,-4.1,-1.7,4.2,2.5,2.5,10.2,i,-1.9,1.6
Cc1ccccc1-c1nc(CN2CCC(C(=O)NCc3cccnc3)CC2)c(C)o1,nt,-12.8,-10.2,nt,nt,nt,-19.0,nt,0.9,-1.7
CCN(CC)S(=O)(=O)c1cccc(C(=O)N[C@H](C(=O)OCC(=O)NC(=O)NC)C(C)C)c1,nt,-1.7,nt,nt,nt,nt,3.8,nt,-6.0,4.5
CCCC(C(=O)Nc1ccc(S(=O)(=O)N2CCOCC2)cc1)c1ccccc1 (centres undefined),1.0,nt,2.7,-22.4,-39.2,-6.6,6.0,i,nt,nt
COc1ccc(S(=O)(=O)N2CCN(C(=O)c3cnc(C)cn3)CC2)cc1,nt,4.6,-2.3,nt,nt,nt,-7.3,nt,9.9,-1.0
Cc1ccc(Sc2ncnc3onc(C)c23)cc1,nt,6.9,-28.2,nt,nt,nt,99.2*,nt,nt,2.4
Fc1ccc(-c2nc(-c3cnccn3)no2)c(Cl)c1,nt,4.4,4.3,14.1,13.0,5.2,-0.1,i,4.0,4.8
O=c1c([N+](=O)[O-])c(NC2CCCCC2)c2ccccc2n1-c1ccccc1,nt,-0.4,10.3,nt,nt,nt,-2.3,nt,30.4,-8.4
CCOc1ccccc1OCC(=O)Nc1cc2c(cc1C(=O)O)OCCCO2,-8.0,-3.4,-2.0,-8.5,-6.0,5.3,2.7,i,-8.0,2.1
Cc1cc(C(F)(F)F)nn1CC(=O)NCC1CCCO1 (centres undefined),nt,4.6,-0.6,nt,nt,nt,-9.5,nt,-19.8,-2.0
COc1ccc(-c2nc3ccccc3c(=O)n2CCN2CCOCC2)cc1,nt,3.4,nt,nt,nt,nt,2.4,nt,-14.7,2.5

# The list goes on.
SMILES,AF4-AF9 inh,Calb FLC,Beta apoptosis,Ecoli rRNA inh,Ecoli rRNA inh OD600,Ecoli rRNA inh RFP,ALR inh,FGF22 binding,T cruzi inh,RanGTP-Impb inh
CCOc1ccc(-c2cnc3n2CCC3)cc1,nt,-22.9,2.8,nt,nt,nt,-0.8,nt,3.0,-0.8
COCCn1c(C)cc(O)c(C(=O)Nc2cccc(Cl)c2)c1=O,-3.5,?,-9.1,1.2,-0.2,-1.5,1.0,i,-2.0,-4.2
CCOC(=O)C1=NOC(Cn2cc(C(C)=O)c(=O)[nH]c2=O)C1 (centres undefined),0.9,5.2,-3.4,23.7,8.2,3.3,-8.3,i,-0.4,4.2
O=C(Nc1ccn(Cc2ccccc2F)n1)c1ccc(COc2cccc(Br)c2)cc1,nt,-2.8,-0.3,nt,nt,nt,-14.0,nt,35.2,?
O=C(O)c1cc(S(=O)(=O)Nc2ccccc2C(=O)O)ccc1O,nt,20.2,1.4,nt,nt,nt,-3.6,nt,-9.8,1.6
O=C(CN1CCN(Cc2ccc(F)cc2)C1=O)NCc1cccs1,1.9,2.0,nt,7.4,2.6,0.0,-2.4,i,-7.3,?

# Limited to T cruzi inh and Beta apoptosis, for some of the entries so far:
structure	T cruzi inh	Beta apoptosis
CCOc1ccc(-c2cnc3n2CCC3)cc1	3.0	2.8
COCCn1c(C)cc(O)c(C(=O)Nc2cccc(Cl)c2)c1=O	-2.0	-9.1
CCOC(=O)C1=NOC(Cn2cc(C(C)=O)c(=O)[nH]c2=O)C1 (centres undefined)	-0.4	-3.4
O=C(Nc1ccn(Cc2ccccc2F)n1)c1ccc(COc2cccc(Br)c2)cc1	35.2	-0.3

# An excerpt; count on the stated rates, not on these rows.
